Screens from PubChem.
Mtb hypoxia inh: PubChem AID 1159583; M. tuberculosis hypoxia-regulated fluorescent reporter, fluorescence; fluorescence inhibition, % (concentration not given with the values); 0.1% of 300,000 active;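 active = 35 to 45% if threefold the growth effect, above 45% if 1.5-fold the growth effect; inactive = the rest, general growth blockers included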;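 note: wells of about 50 µL received 100 nL stock; 0% = vehicle wells and 100% = reference inhibitor wells; whole bacteria with a GFP reporter of the hypoxia response; strong numbers were not always called active; many hits fall short of the cut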
Bead autofluor: counter-screen for toxin protease inhibitors: compound fluorescence. compound autofluorescence counterscreen, microsphere flow cytometry; stronger effect = higher value. fluorescence intensity (test concentration not listed). 3.1% of 360,000 active. AID 624483;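 active = at least 3 SD above the mean of all compounds, about 16000 in these data; inconclusive = too few beads counted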;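 note: 100 nL of 1 mM stock went into each well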
Sa ugtP lethal: growth inhibition of ugtP-null S. aureus, primary screen, RN4220 ugtP deletion, OD600; 0.54% of 330,000 active; growth inhibition, % (no concentration beside the values); 16 h; some inactives read as strong as hits;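 active = z-score under -3 and OD600 up to 0.15 on both plates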;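 note: plate controls were untreated wells for no effect and antibiotic for full effect; wells of about 80 µL received 100 nL stock; the first replicate is given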
BJeLR viability: MLPCN primary cell-based screen for lethality selective to Ras in HRASV12 cells. BJeLR (HRASV12) viability, CellTiter-Glo ATP luminescence, 48 h; reference of the scale not given here. inhibition, % (concentration not given with the values). 0.17% of 300,000 active. AID 1554, 2009;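 active = replicate mean above 50%; inconclusive = above 50% but judged a plate artefact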;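 note: 50 nL library stock added to about 25 µL; numbers are from one replicate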
PrP 5UTR inh: inhibition of PrP 5' UTR reporter expression; cell-based PrP 5' UTR mRNA reporter, plate reader; inhibition, % (concentration not given with the values); 0.35% of 340,000 active; AID 488862, 2010;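 active = every replicate at 50% or more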;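 note: 0 = median of the neutral control wells; tested in H4 reporter cells; numbers are from one replicate; inactives centre near -14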
RN4220 kill: growth inhibition of S. aureus RN4220, primary screen, OD600 | 0.33% of 330,000 active | AID 1259311, 2017 | 16 h | inhibition, % (test concentration not listed);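 active = z-score of -3 or lower and OD600 up to 0.18 on both plates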;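 note: plate controls were untreated cells for no effect and reference antibiotic for full effect; stock transfer was 100 nL into about 80 µL; one replicate is shown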
Mtb hypoxia inh growth: second read-out of Mtb hypoxia inh, no call of its own (marks repeat the call); growth inhibition, %; measured here: M. tuberculosis growth (absorbance);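 0% = vehicle and 100% = reference antibiotic; read after six days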
* marks the source's active call; other numbers are inactive results; ? = inconclusive; . = no result given; & = joins results of further samples; ! = a repeat was not active.

SMILES	Mtb hypoxia inh	Mtb hypoxia inh growth	Bead autofluor	Sa ugtP lethal	BJeLR viability	PrP 5UTR inh	RN4220 kill
COc1ccc(N2CCN(CCCNC(=O)Cn3c(=O)c4cccn4c4cccnc43)CC2)cc1	6	4	5901	1	-8	-3	5.1
COC(=O)CN(c1cc(Cl)ccc1OC)S(=O)(=O)c1ccc(C)cc1	-14	-18	.	-3	10	-15	3.6
COc1ccc(-c2nc(C#N)c(N3CCOCC3)o2)cc1OC	-7	-2	2869	-13	-7	-3	-2.1
O=C(COc1cccc2cccnc12)N/N=C/c1cccn1-c1ccc(F)cc1	.	.	5506	.	1	-31	.
Cc1cccc(NC(=O)c2nc[nH]c2C(=O)N2CCN(c3ccccc3)CC2)c1	11	-1	4110	-4	.	-16	3.2
COc1ccc(NC(=O)c2cc(C)no2)cc1Cl	-4	4	5730	2	1	-15	-2.8
O=C(O)C1OC2OC3(CCCCC3)OC2C2OC3(CCCCC3)OC12 (configuration not stated)	5	-9	2111	-9	1	-1	-0.5
CCCCNS(=O)(=O)c1ccc(Br)cc1N1CCC[C@H]1CO	-1	0	3756	-1	.	-14	4.5
CCN(CC)S(=O)(=O)c1ccc(S(=O)(=O)N2CCCC2C(=O)O)cc1 (configuration not stated)	9	5	8582	6	-2	-3	1.3
Cc1ccc(N2CCN(c3ccc(C)cc3)C(CC(=O)O)C2=O)cc1 (configuration not stated)	-1	3	6216	-3	-11	-7	-0.2
CCC(=O)Nc1sc(C(=O)OC)c(C)c1C(=O)OC	-6	6	7990	-4	-20	-5	5.3
Fc1cc(F)c2nc(N3CCOCC3)sc2c1	-1	-9	2069	6	0	-51	-2.1
CCC1=C(OC(=O)N(CC)CC)N2C(=O)OC(=NCC(=O)OC)[C@]2(C)[C@H]2C1=CC[C@H]1C(=O)N(CC(=O)OC)C(=O)[C@H]12	.	.	3813	.	-3	-13	.
O=c1[nH]ncc(NN=Cc2ccc(O)cc2O)c1Cl	4	7	.	-9	.	.	2.3
COC(CNC(=O)c1cc(Sc2nnc(C)s2)nc2ccccc12)OC	17	7	2565	2	-8	-11	4.4
C=C1C(=O)O[C@H]2C[C@H]1[C@@H](OC(C)=O)C/C(C)=C/CC/C(C)=C\CC[C@]2(C)O	1	14	3619	-5	.	4	7.9
CCOc1ccc(C(=O)NCC(=O)OCC(=O)N2CCC(C)CC2)cc1	6	3	3329	13	0	-12	2.1
Cc1ccc(S(=O)(=O)N2CCN(C(=O)c3ccccc3)C2)cc1[N+](=O)[O-]	-1	6	2675	-11	0	-23	-2.6
CCN1C(=O)N(C)[C@@H](c2ccccc2)C(C(=O)OC)=C1C	.	.	3702	.	2	-1	.
CN(C)CCCNC(=O)c1cc(C(=O)C2CCCCC2)c[nH]1	5	-2	4412	3	-1	-41	1.4
O=C(Nc1ccc(Cl)cc1)c1csc(-c2ccncc2)n1	3	-2	3893	10	-3	-30	18
CC(NS(=O)(=O)c1ccc2c(c1)oc(=O)n2C)c1ccccc1 (configuration not stated)	4	-1	6460	8	2	-15	1.2
COc1ccc(Cn2c(SCc3cc(C)ccc3C)nc3cc(OC)c(OC)cc3c2=N)cc1	.	.	9830	-16	-2	-28	16
Cc1cccc(C=Nc2ccc3c4c(cccc24)CC3)c1O	11	0	2877	17	-5	-3	2.6
O=[N+]([O-])c1ccc(N2CCOCC2)c([N+](=O)[O-])c1	21	8	4173	1	.	-13	2.8
CCC(=O)NCCc1nc2cc(NC(=O)COc3ccccc3)ccc2n1C	17	6	3080	7	-6	-22	6.3
O=C(c1cccc([N+](=O)[O-])c1)C12CN3CN(CN(C3)C1)C2	-2	1	4170	10	-5	-15	3.1
Cc1cc(CNC(=O)COC(=O)c2ccc(Cl)c(N)c2)cc(C)c1O	-13	1	4437	1	-3	-14	0.5
CCOc1ccc(CNC(=O)CCCOc2cc(=O)n(C)c3ccccc23)cc1	14	10	9517	10	-6	-18	3.5
CCN(CC)C(=O)Oc1c(Cl)cc(Cl)c2cccnc12	11	7	2454	-2	-3	-10	4.1
CCNc1nc(NCC)nc(N/N=C/c2cc(OC)c(OC)c(OC)c2)n1	.	.	5474	.	-3	-19	.
S=c1sc(SCCOc2ccccc2)nn1-c1ccccc1	17	12	2178	-7	6	-1	2.0
CCN(CC)CCOc1ccc2c(c1)C(=NO)c1cc(OCCN(CC)CC)ccc1-2	9	3	10667	-16	22	-65	1.5
CCN1C=C(Cc2cccs2)C2=C(C1)C(c1cccs1)C(C#N)=C(N)O2 (configuration not stated)	-1	2	2947	6	-10	-24	-10.0
O=S(Cc1ccccc1)CC(O)(c1ccccc1)c1ccccc1 (configuration not stated)	5	9	21390*	1	12	-16	8.5
CCCCNC(=O)c1onc(CSc2cccc(Cl)c2)c1C(=O)O	11	6	3673	13	-1	-15	26
COc1ccccc1C=NNC(=O)NN=Cc1ccccc1OC	-2	13	3890	0	.	-23	5.6
O=C(CN1CCN(Cc2ccccc2)CC1)Nc1ccccc1	11	13	4202	8	10	-43	5.4
Cc1ccccc1OCC(=O)Nc1sc2c(c1C#N)CC(C)(C)NC2(C)C	11	11	3567	3	3	-18	1.2
CCc1ccccc1NC(=O)CN(C)C(=O)c1cccc(S(=O)(=O)N2CCCCCC2)c1	-1	8	5427	7	.	-5	4.8

The last 3 compounds of the part above open the next one:
SMILES	Mtb hypoxia inh	Mtb hypoxia inh growth	Bead autofluor	Sa ugtP lethal	BJeLR viability	PrP 5UTR inh	RN4220 kill
O=C(CN1CCN(Cc2ccccc2)CC1)Nc1ccccc1	11	13	4202	8	10	-43	5.4
Cc1ccccc1OCC(=O)Nc1sc2c(c1C#N)CC(C)(C)NC2(C)C	11	11	3567	3	3	-18	1.2
CCc1ccccc1NC(=O)CN(C)C(=O)c1cccc(S(=O)(=O)N2CCCCCC2)c1	-1	8	5427	7	.	-5	4.8
O=C(Nc1ccc2c(c1)OCO2)c1c(Cl)nc2sccn12	10	12	2889	-4	2	-75	-12
Cc1ccnc2c1ccc1cccnc12	.	.	5212	6	.	26	-5.8
CCCOc1ccc(-c2nc(C#N)c(NCCCn3ccnc3)o2)cc1	-3	5	?	15	0	-19	-0.4
O=C(CCNC(=O)c1ccccc1Cl)NCCc1ccc(Cl)cc1	3	6	3409	8	-1	-37	5.5
C=CCNC(=O)CN1C(=O)C2C3c4ccccc4C(c4ccccc43)C2C1=O (configuration not stated)	5	1	4385	-3	7	2	0.8
C(=NNC1=NCCCCC1)c1c[nH]c2ccccc12	9	9	.	6	.	.	2.1
O=C(Nc1ccccc1)c1ccc2snnc2c1	10	3	2590	12	-7	-23	2.0
C(=N\n1cnnc1)/c1ccc2ncccc2c1	.	.	20485*	.	-16	-22	.
O=C(NCc1ccccc1)N1CCNCC1	5	10	3946	8	-2	-15	-2.4
CC(=O)c1c(C)[nH]c(C(=O)COc2ccc3ccc(=O)oc3c2)c1C	-3	0	5588	13	0	-1	5.8

Random excerpt: three compounds from above
SMILES	Mtb hypoxia inh	Mtb hypoxia inh growth	Bead autofluor	Sa ugtP lethal	BJeLR viability	PrP 5UTR inh	RN4220 kill
O=C(NCc1ccccc1)N1CCNCC1	5	10	3946	8	-2	-15	-2.4
CC(=O)c1c(C)[nH]c(C(=O)COc2ccc3ccc(=O)oc3c2)c1C	-3	0	5588	13	0	-1	5.8
O=C(Nc1ccc2c(c1)OCO2)c1c(Cl)nc2sccn12	10	12	2889	-4	2	-75	-12

New compounds follow:
SMILES	Mtb hypoxia inh	Mtb hypoxia inh growth	Bead autofluor	Sa ugtP lethal	BJeLR viability	PrP 5UTR inh	RN4220 kill
Cc1cccc(C)c1NC(=O)CS(=O)CC(=O)NC1CCCc2ccccc21 (configuration not stated)	5	9	8070	2	.	-9	-0.8
COc1ccccc1C(=O)NC(=O)CSc1nc(C)cs1	13	2	3936	6	-2	-7	1.8
CC1CCC2(CC1)NC(=O)N(CC(=O)NCCc1ccccc1)C2=O (configuration not stated)	10	2	3318	-3	.	4	-1.0
CC(C)(C)c1csc(NC(=O)Cc2cccs2)n1	9	2	3315	7	12	-4	-1.0
C=CCn1c(C(c2ccccc2)c2ccccc2)n[nH]c1=S	13	9	2526	-2	-3	-19	4.4
CC(=O)c1ccc(NC(=O)CS(=O)(=O)c2cn(CC(=O)N3CCOCC3)c3ccccc23)cc1	-1	-7	5902	9	-1	-25	1.7
COc1ccc(CCNC(=O)CCn2c(=O)oc3ccccc32)cc1OC	2	7	5237	17	-7	-14	20
COc1ccccc1N1CCN(C(=O)C2CCN(S(=O)(=O)c3ccc4c(c3)CC(C)N4C(=O)C3CC3)CC2)CC1 (configuration not stated)	5	-3	4892	16	16	-1	-3.4
Cc1ccc(Cl)cc1NC1=C/C(=N\S(=O)(=O)c2cccs2)c2ccccc2C1=O	-7&4	14&19	3829&11168	46&66	10	-24&-21	90*!
COc1ccccc1C(=O)Nc1ccc(C(=O)O)cc1	3	-1	7009	8	5	3	3.9
CN(Cc1ccccc1)C(=O)C1CCCN(c2ncnc3c2nc2n3CCCCC2)C1 (configuration not stated)	11	1	4585	11	6	39	2.6
OCCCNc1nc(-c2ccccc2)nc2c1oc1ccccc12	21	3	4463	8	2	-26	-2.0
CCOc1cc(/C=N\Nc2nc(Nc3ccccc3)nc(N3CCOCC3)n2)ccc1OC(=O)c1ccco1	.	.	2764	.	-5	-1	.
CCn1ncc(CN2CCCC(C(=O)c3cccc(OC(C)C)c3)C2)c1C (configuration not stated)	0	10	2055	3	15	-1	1.9
COc1ccc(NC(=O)c2cc(S(=O)(=O)N3CCc4ccccc43)cn2C)cc1OC	9	9	6658	7	-13	-22	-1.8
Cn1c(C(=O)N2CCCC(C(=O)NCCCc3ccccc3)C2)cc2sccc21 (configuration not stated)	9	-2	13212	4	-9	-24	-0.5
COC(=O)c1ccccc1NC(=O)N1CCN(c2ccccc2)CC1	-6	14	1889	0	3	-11	3.2
CC(=O)c1cccc(N=C2C(=O)Nc3ccccc32)c1	7	4	3287	2	29	-19	3.6
N#C/C(=C\C1=C(N2CCOCC2)C(=C\c2ccccc2)/CC1)C(=O)Nc1ccccc1F	-2	0	3153	-3	0	-15	2.7
O=C(Nc1ccc2c(c1)OCO2)c1ccc(N2CCCC2)c([N+](=O)[O-])c1	-1	8	1765	-8	-7	-42	3.1
COc1cc(C=CC(=O)O)cc(S(=O)(=O)Nc2ccccc2SC)c1OC	4	2	.	-5	.	.	-0.7
O=C(Cn1c(=O)oc2ccccc21)Nc1ccc(Cl)cc1Cl	-9	3	4423	0	5	-18	-0.5
Cc1c(CN2CCCCC2)c(O)n(CCO)c(=O)c1C#N	12	0	1968	-6	-5	-6	5.0
O=C(Cn1cnc2cc([N+](=O)[O-])ccc2c1=O)NC1CCS(=O)(=O)C1 (configuration not stated)	10	-1	3096	8	2	-9	5.2
CC(=O)NC(CCS(C)(=O)=O)C(=O)Nc1cccc(C)c1C (configuration not stated)	-7	-4	6141	1	-10	-13	2.2
Cn1ccc(C(=O)OCC(=O)Nc2cccc(Cl)c2)n1	16	7	5486	5	-7	-12	2.8
CCC(=O)Nc1nc2cc(OC)ccc2s1	10	8	8830	1	3	-49	2.2
O=[N+]([O-])c1ccc(COc2ccc(Br)cc2CN2CCOCC2)cc1	-5	5	4645	-5	-9	-17	-0.2
CCC(=O)NN1CCN(c2ccncc2S(=O)(=O)N2CCCCC2)CC1	-5	2	5643	3	2	-9	1.1
CN1C2=NCCN2C(=O)c2cc(Cl)ccc21	-2	4	5431	-6	4	-7	-2.1
Cc1cc(C(=O)NC(c2ccccc2)[C@@]2(C)CC2C(C)C(=O)Nc2ccc3ccccc3c2)no1 (some centres not stated)	5	11	.	-1	.	.	-5.6
Cc1cccc(/C=N\N=C\c2cccc(C)c2)c1	.	.	3355	.	10	-44	.
Cc1nc(C(=O)NCCCO)cc2c1[nH]c1ccccc12	5	7	6061	-4	-13	-32	2.0
O=C(Nc1ccc(N2CCOCC2)nc1)c1ccc(F)cc1	8	7	22364*	5	0	-37	1.9
CC(C)C(c1nnnn1CCc1ccccc1)N1CCC(C(N)=O)CC1 (configuration not stated)	6	4	4472	-2	-3	-17	0.8
